High-throughput results deposited in PubChem BioAssay by National Center for Advancing Translational Sciences (NCATS).
aGlu spleen mod = lysosomal alpha-glucosidase (human) modulation; human spleen homogenate, 4-MU-alpha-glucoside fluorescence; Potency, µM (top dose mostly 79.9 µM), for inactives: at the highest dose activity change, negative = inhibition, actives largely listed as inhibitors; actives 0.006% (n = 240,000);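 note: 0% = enzyme with vehicle and -100% = no enzyme basal signal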
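Human spleen homogenate (1 ug) incubated with compounds and 1 mM 4-methylumbelliferyl-alpha-D-glucopyranoside in pH 5.0 citrate/phosphate buffer, 37 C, 40 min. Stopped at pH 10; 4-MU fluorescence (Ex 365/Em 440 nm); AC50 by Hill fit.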
GAA inh = inhibitors of human lysosomal alpha-glucosidase. P10253. purified human GAA, 4-MU-alpha-glucoside fluorescence. Potency, µM (titrated, usually from 76.9 µM), for inactives: at the highest dose activity change, negative = inhibition, most hits filed as inhibitors. actives 0.005% (n = 200,000);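 note: plate controls were uninhibited enzyme wells for no effect and no-enzyme background for full effect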
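Human enzyme at 4 nM with 400 uM 4-methylumbelliferyl-alpha-D-pyranoside, citrate/phosphate buffer pH 5.0, 0.005% Tween-20, 20 min at room temperature. Compounds up to 77 uM. 4-MU fluorescence (Ex 365/Em 440) read after NaOH/glycine stop; AC50 from Hill fit.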
Epigenetic reg = derepresses silenced GFP reporter in murine cells | murine LDR cells, GFP reporter derepression, 30 h | Potency, µM (highest dose often 53.9 µM), for inactives: top-dose GFP activation, hits mostly activators | actives 0.2% (n = 280,000) | AID 1865; note: % of control where 0% means no effect; nearly all actives have a fitted effect of over 60% in size
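In this reporter-derepression format, murine cells bearing a silenced integrated CMV-GFP locus incubate with test compound (30 h, 37 C), then are washed and imaged; fluorescent objects of 20–120 um count as induced cells.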
GAA glycogen mod = alters human alpha-glucosidase cleavage of glycogen; P10253; recombinant GAA, glycogen substrate, Amplex Red glucose oxidase fluorescence; Potency, µM (top dose mostly 76.4 µM), inactives show top-dose activity change, negative = inhibition, hits mostly inhibitors; actives 0.38% (n = 300,000); AID 2100;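 note: 0% = full enzyme reaction and -100% = no-enzyme basal signal; the screen sought inhibitors and activators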
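Natural-substrate format: glycogen cleavage by 4 nM human enzyme, glucose read by Amplex Red coupling (Ex 573, Em 610 nm). Normalized to enzyme and no-enzyme controls.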
NPSR antagonist = blocks cAMP signaling of the human neuropeptide S receptor; Q6W5P4; CHO-NPSR cells, cAMP TR-FRET, antagonist mode; Potency, µM (titrated, usually from 38.3 µM), for the others: top-dose activity change, negative = inhibition, usual class: inhibitors; actives 1% (n = 220,000); note: % is set by controls: 0 for no effect and ±100 for the full control effect; nearly all actives have a fitted effect of over 50% in size; many of its hits are not listed in these tables
Target sequence (Q6W5P4 whole entry, looked up): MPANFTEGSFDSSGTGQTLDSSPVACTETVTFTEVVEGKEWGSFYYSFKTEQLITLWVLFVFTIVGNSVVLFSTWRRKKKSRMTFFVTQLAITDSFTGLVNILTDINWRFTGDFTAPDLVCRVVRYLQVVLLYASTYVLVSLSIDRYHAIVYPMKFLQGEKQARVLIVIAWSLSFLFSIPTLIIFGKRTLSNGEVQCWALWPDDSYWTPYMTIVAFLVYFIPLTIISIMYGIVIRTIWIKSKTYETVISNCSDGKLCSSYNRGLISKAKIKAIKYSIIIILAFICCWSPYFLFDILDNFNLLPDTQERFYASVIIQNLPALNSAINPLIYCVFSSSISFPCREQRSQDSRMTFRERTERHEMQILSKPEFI
* = called active by the depositor; . = not tested or not shown; & = joins results of further samples; [ ] = remark or other dose. Calls come from the whole dose curve; as a rule, active = well fitted curve in the direction sought with a large enough effect; inconclusive = small, poorly fitted or top-dose-only effect, or another doubt; inactive = no such curve, though single readings can be large; an effect the other way counts as inactive or inconclusive. Potency is the fitted concentration of half-maximal effect.

Assay codes: A = aGlu spleen mod; B = GAA inh; C = Epigenetic reg; D = GAA glycogen mod; E = NPSR antagonist
> C=CCc1ccc(OC)cc1
  A: -13.3%&2.9% | B: . | C: 1.3% | D: . | E: .

> CC(=O)OCC1=C(C(=O)[O-])N2C(=O)[C@@H](NC(=O)CCC[C@@H](N)C(=O)[O-])[C@H]2SC1.[Zn+2]
  A: -2.2% | B: . | C: -1.2% | D: . | E: 5.8%[46.1 µM]

> CC(C)(C)c1ccc(O)cc1
  A: -6.9% | B: . | C: -3.4% | D: . | E: .

> C/C=C\c1ccc(OC)cc1
  A: -0.7% | B: . | C: . | D: . | E: .

> CC(=O)OCC1=C(C(=O)O)N2C(=O)C(NC(=O)CCCC(N)C(=O)O)C2SC1 (stereo unspecified)
  A: 0.1% | B: . | C: 1.3% | D: . | E: .

> c1c[nH]cn1
  A: 0.7% | B: . | C: . | D: . | E: .

> C[C@H]1CC[C@@]2(NC1)O[C@@H]1C[C@H]3[C@@H]4CC[C@@H]5C[C@@H](O)CC[C@@]5(C)[C@@H]4CC[C@]3(C)[C@@H]1[C@@H]2C
  A: -9.6%[29.1 µM] | B: . | C: 1.1%[16.9 µM] | D: . | E: .

> CN1CC(CNC(=O)OCc2ccccc2)CC2c3cccc4c3c(cn4C)CC21 (stereo unspecified)
  A: 3.8% | B: . | C: -0.5% | D: . | E: .

> CC1(C)C(C=C(Cl)Cl)C1C(=O)OC(C#N)c1cccc(Oc2ccccc2)c1 (stereo unspecified)
  A: -3.4%&6.0% | B: . | C: 1.1%&1.7% | D: . | E: .

> CN(C)C1C(=O)C(C(N)=O)=C(O)[C@@]2(O)C(=O)C3=C(O)c4c(O)ccc(Cl)c4[C@](C)(O)C3CC12 (stereo partly specified)
  A: 4.5% | B: . | C: 8.0% | D: . | E: .

> CC(C)NCC(O)COc1cccc2[nH]ccc12 (stereo unspecified)
  A: -0.1%&7.0%&-5.4%&-8.7% | B: -8.1%[15.4 µM] | C: 0.0%&1.1%&0.8%&1.1% | D: -2.3% | E: 26.5%

7 neighbouring compounds from above, quoted:
Assay codes: A = aGlu spleen mod; B = GAA inh; C = Epigenetic reg; D = GAA glycogen mod; E = NPSR antagonist
> CC(=O)OCC1=C(C(=O)O)N2C(=O)C(NC(=O)CCCC(N)C(=O)O)C2SC1 (stereo unspecified)
  A: 0.1% | B: . | C: 1.3% | D: . | E: .

> c1c[nH]cn1
  A: 0.7% | B: . | C: . | D: . | E: .

> C[C@H]1CC[C@@]2(NC1)O[C@@H]1C[C@H]3[C@@H]4CC[C@@H]5C[C@@H](O)CC[C@@]5(C)[C@@H]4CC[C@]3(C)[C@@H]1[C@@H]2C
  A: -9.6%[29.1 µM] | B: . | C: 1.1%[16.9 µM] | D: . | E: .

> CN1CC(CNC(=O)OCc2ccccc2)CC2c3cccc4c3c(cn4C)CC21 (stereo unspecified)
  A: 3.8% | B: . | C: -0.5% | D: . | E: .

> CC1(C)C(C=C(Cl)Cl)C1C(=O)OC(C#N)c1cccc(Oc2ccccc2)c1 (stereo unspecified)
  A: -3.4%&6.0% | B: . | C: 1.1%&1.7% | D: . | E: .

> CN(C)C1C(=O)C(C(N)=O)=C(O)[C@@]2(O)C(=O)C3=C(O)c4c(O)ccc(Cl)c4[C@](C)(O)C3CC12 (stereo partly specified)
  A: 4.5% | B: . | C: 8.0% | D: . | E: .

> CC(C)NCC(O)COc1cccc2[nH]ccc12 (stereo unspecified)
  A: -0.1%&7.0%&-5.4%&-8.7% | B: -8.1%[15.4 µM] | C: 0.0%&1.1%&0.8%&1.1% | D: -2.3% | E: 26.5%

Only part of the results is shown, so the mix of outcomes need not match the whole.
